Cruzain Triton = cruzain (T. cruzi) inhibition with detergent. P25779. purified cruzain, Z-FR-AMC fluorescence, 0.01% Triton. Potency, µM, without a hit: max response, negative = inhibition, hits mostly inhibitors. 200,000 tested, 0.43% active. AID 1478; active = well fitted curve in the direction sought with a large enough effect; inconclusive = small, poorly fitted or top-dose-only effect, or another doubt; inactive = no such curve, though single readings can be large; an effect the other way counts as inactive or inconclusive;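 note: plate controls were neutral wells for no effect and buffer without enzyme for full effect; nearly all actives have a fitted effect of over 40% in size; top concentration of the series not given in the record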
Target sequence (P25779 123-467 limits assumed): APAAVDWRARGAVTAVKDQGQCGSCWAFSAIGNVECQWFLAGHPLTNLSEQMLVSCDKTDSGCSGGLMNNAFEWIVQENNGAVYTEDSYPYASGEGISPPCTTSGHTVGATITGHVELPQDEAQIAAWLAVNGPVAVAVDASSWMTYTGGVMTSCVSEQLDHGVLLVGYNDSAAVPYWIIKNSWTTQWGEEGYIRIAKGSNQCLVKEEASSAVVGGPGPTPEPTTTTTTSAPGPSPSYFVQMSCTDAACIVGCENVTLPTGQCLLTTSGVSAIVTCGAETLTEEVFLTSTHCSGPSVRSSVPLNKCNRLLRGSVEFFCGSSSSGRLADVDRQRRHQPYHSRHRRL
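Cysteine protease activity tested under reducing, mildly acidic conditions (100 mM sodium acetate pH 5.5, 5 mM DTT) plus 0.01% Triton X-100. Cruzain 1.5 nM; substrate Z-FR-AMC 2 uM; 15 min compound preincubation at room temperature.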
Cruzain noTriton = cruzain (T. cruzi) inhibition without detergent. P25779. 200,000 tested, 2.3% active. Potency, µM, without a hit: max response, negative = inhibition, hits mostly inhibitors. AID 1476. purified cruzain, Z-FR-AMC fluorescence, no detergent; active = well fitted curve in the direction sought with a large enough effect; inconclusive = small, poorly fitted or top-dose-only effect, or another doubt; inactive = no such curve, though single readings can be large; an effect the other way counts as inactive or inconclusive;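 note: plate controls were enzyme without inhibitor for no effect and buffer without enzyme for full effect; nearly all actives have a fitted effect of over 40% in size; top concentration of the series not given in the record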
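Detergent-free condition (0.00005% Triton X-100) in acetate buffer pH 5.5 with DTT. 1.5 nM enzyme and compound were pre-mixed 15 min, then 2 uM Z-FR-AMC substrate added; reaction progress from fluorescence change between first and third reads (60 s).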
SARS PLP yeast = SARS-CoV PLP inhibition in yeast; Potency, µM (titrated, usually from 32.9 µM), inactives show top-dose activity, positive = growth rescue; S. cerevisiae expressing SARS-CoV PLpro, growth rescue; control for the full effect not named in the record; 330,000 tested, 0.19% active; AID 485353; note: 0% is about no effect; nearly all actives have a fitted effect of over 55% in size; growth read by luminescence after 48 h
StopGo reporter = FMDV 2A StopGo reporter, luciferase signal; 410,000 tested, 1.2% active; human cells with a luciferase reporter of 2A StopGo recoding; control for the full effect not named in the record; Potency, µM (doses to about 57.9 µM), without a hit: at the highest dose signal change, negative = less light; active = well fitted falling curve with a large enough effect; inconclusive = small, poorly fitted or top-dose-only effect; inactive = no such curve, though single readings can be large or run the other way; tested in HEK293T cells; note: % is set by controls: 0 for no effect and ±100 for the full control effect; nearly all actives have a fitted effect of over 45% in size; luciferase light after 4 h
NS1 function inh = influenza NS1 inhibition; Potency, µM (highest dose often 46.1 µM), for the others: at the top dose activity, positive = more growth; S. cerevisiae slowed by influenza A NS1, growth recovery by OD600; AID 2326; 270,000 tested, 0.4% active; note: actives are rising curves; nearly all actives have a fitted effect of over 50% in size
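Growth recovery, yeast-based: influenza A NS1 expressed in S. cerevisiae causes slow growth, and suppressors are detected by OD600. The parent strain without NS1 is used as positive control.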
Lassa entry inh = blocks Lassa virus binding to or entry into cells; Lassa virus pseudotype entry inhibition, cell reporter; control for the full effect not named in the record; 300,000 tested, 1.2% active; Potency, µM (doses to about 37.9 µM), for the others: at the highest dose activity change, negative = inhibition, actives largely listed as inhibitors; AID 540256; active means well fitted inhibition curve with a large enough effect; inconclusive means small, poorly fitted or top-dose-only effect, or effect the other way; inactive means flat fitted curve, though single readings scatter; tested in HEK293 cells; note: % is set by controls: 0 for no effect and ±100 for the full control effect; nearly all actives have a fitted effect of over 50% in size; luciferase read-out
RE007 growth inh = less growth of the S. pombe RE007 Vpr strain. AID 651644. S. pombe RE007 Vpr strain, BacTiter-Glo ATP luminescence, 24 h; control for the full effect not named in the record. 360,000 tested, 0.21% active. Potency, µM (doses to about 92.2 µM), without a hit: top-dose activity change, negative = less growth; active = well fitted falling curve with a large enough effect; inconclusive = small, poorly fitted or top-dose-only effect; inactive = no such curve, though single readings can be large or run the other way;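 note: % is set by controls: 0 for no effect and ±100 for the full control effect; nearly all actives have a fitted effect of over 50% in size; the assay follows cell death caused by Vpr and the record does not say whether a fall means rescue or toxicity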
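Fission yeast strain RE007, carrying one chromosomally integrated HIV-1 vpr copy, was seeded at OD 0.01 in PMG+AL medium with 23 nL pinned compound. After 24 h at 30 °C and 99% humidity, viability was read by BacTiter-Glo luminescence.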
MARV entry inh = blocks Marburg virus binding to or entry into cells; Marburg virus pseudotyped entry inhibition, cell reporter; control for the full effect not named in the record; about a third of the inactives were read at about 46 µM; AID 540276; 300,000 tested, 1.8% active; Potency, µM (top dose mostly 37.8 µM), without a hit: top-dose activity change, negative = inhibition, hits mostly inhibitors; active = well fitted inhibition curve with a large enough effect; inconclusive = small, poorly fitted or top-dose-only effect, or effect the other way; inactive = flat fitted curve, though single readings scatter; tested in HEK293 cells; about a fifth of its hits are not listed in these tables; note: % is set by controls: 0 for no effect and ±100 for the full control effect; luciferase read-out
* hit, by the source's call; ? = inconclusive; / = no result given; & = joins results of further samples; [ ] = remark or other dose. Unless noted, calls come from the whole dose curve; as a rule, active means well fitted rising curve with a large enough effect; inconclusive means small, poorly fitted or top-dose-only effect; inactive means no such curve, though single readings can be large or run the other way. Potency is the fitted concentration of half-maximal effect. Hits appear at their usual frequency; any-hit rate near 4.7%.

SMILES	Cruzain Triton	Cruzain noTriton	SARS PLP yeast	StopGo reporter	NS1 function inh	Lassa entry inh	RE007 growth inh	MARV entry inh
Cc1ccccc1-c1cccc(CN2CCN(C)C(CCO)C2)c1 (configuration not stated)	/	/	-5%	0%	-8%	/	0%	/
COC(=O)c1sccc1NC(=O)c1ccccc1	/	/	-8%	-1%	/	0%[46.1 µM]	?	?
COCCn1c(SCC(=O)c2c[nH]c3ccccc23)nnc1-c1ccncc1	-3.4%	-19%	5%	4%	19%	22%	-3%	-1%
COCCCN1C(=O)C(O)=C(C(=O)c2ccc(C)o2)C1c1cccc(Br)c1 (configuration not stated)	1.6%	-3%	3%	/	5%	-2%	11%	0%
CCNc1nc(NC(C)(C)C)nc(N2CCCC2)n1	0.1%	-14%	-10%	-26%	-16%	?	5%	3.2µM*
COC(=O)C1=C(c2ccccc2)c2ccccc2S(=O)(=O)N1CC(=O)Nc1cc(C)ccc1C	-8.6%	-3%	/	0%	/	?	/	-22%[46.1 µM]
N#Cc1ccc(CSc2nc3c(c(=O)[nH]2)CCCC3)cc1	-2.8%	-6%	/	-22%	/	11%[46.1 µM]	/	-4%[46.1 µM]
COCCOC(=O)c1c(N)n(Cc2ccccc2)c2nc3ccccc3nc12	-22%	1%	1%	0%	-1%	?	19%	-27%
C=CCn1c(N2CCOCC2)nc2c1c(=O)[nH]c(=O)n2C	/	/	2%	-9%	/	-10%	5%	3%[46.1 µM]
Cc1cccc2nc(CSc3nc4[nH]ncc4c(=O)n3-c3ccccc3Cl)cc(=O)n12	-8.0%	26%	29%	-27%	0%	-17%&-5%	1%	?
COc1ccc(C(C(=O)NCc2ccccc2)N(C(=O)Cn2nnc3ccccc32)c2cccc(OC)c2)cc1 (configuration not stated)	-1.5%	-15%	/	4%	/	13%[46.1 µM]	/	21%[46.1 µM]
O=C1CCC(C(=O)N(CCO)Cc2ccccc2)CN1CC1CCCCC1 (configuration not stated)	/	/	-1%	-13%	-1%	?	-2%	-6%
CC1CCN(S(=O)(=O)c2cc(C(=O)NCc3ccc(F)cc3)n(C)c2)CC1	-12%	-9%	/	-14%	/	-8%[46.1 µM]	/	/
COC(=O)C(CC(C)C)NC(=O)c1cccs1 (configuration not stated)	/	/	1%	-7%	2%	17%	1%	-1%
O=C(CN1C(=O)C2CCCCC2C1=O)N1CCN(c2ccc(F)cc2)CC1 (configuration not stated)	/	/	-1%	-5%	4%	23%[46.1 µM]	3%	6%[46.1 µM]
CO/N=C/c1ccc(Sc2ccc(C)cc2)c([N+](=O)[O-])c1	-1.6%	1%	1%	-25%	-1%	?	-1%	-18%
Cc1ccc(S(=O)(=O)Nc2ccc(SC(F)F)cc2)c(C)c1	-9.0%	12%	-42%	75%[activator]	-49%	?	?	-12%
CCC1CCC/C1=N\NC(=O)c1cc(C)[nH]n1 (configuration not stated)	-4.7%	-2%	-2%	/	-59%	19%	5%	10%
Cc1ccc(S(=O)(=O)N(CC(=O)Nc2cccnc2)c2cccc([N+](=O)[O-])c2)cc1	/	/	13%	11%	-4%	-23%	0%	?
O=C(OC(C(=O)NCc1cccs1)c1ccccn1)c1cccs1 (configuration not stated)	4.2%	-1%	6%	23%	-6%	11%	9%	6%
CC(C)(C)NC(=O)C(=O)NNC(=O)c1ccccc1Br	/	/	0%	12%	-1%	-1%	0%	-2%[46.1 µM]
CCOc1ccc(NC(=O)c2c(NC(=O)c3ccccc3F)sc3c2CCC3)cc1	0.5%	1%	/	3%	/	-9%[46.1 µM]	/	/
C=CCNC(=O)c1onc(CSc2cc(C)cc(C)c2)c1C(=O)NCC=C	/	/	-2%	-26%	-3%	/	-13%	/
C/C(=N\NC(=O)COc1ccc(C)cc1C(C)C)c1ccc(-n2ccnc2)cc1	-9.9%	11%	-53%	-1%	-18%	?	-15%	-1%
C/C(Cn1cnc([N+](=O)[O-])n1)=N/NC(=O)COc1ccccc1Cl	-3.3%	-3%	3%	-15%	10%	21%	-3%	-2%
COc1cc(OC)cc(C(=O)OCC(=O)N(C)c2ccccc2)c1	/	/	-2%	7%	-6%	-25%[46.1 µM]	7%	0%[46.1 µM]
N#Cc1ccccc1/C=N/Nc1nc(-c2ccccc2)c2cc(Cl)ccc2n1	1.2%	?	0%	?	-1%	18%	-2%	?
CCCN1CCc2nc(N3CCN(C)CC3)ncc2C1	1.0%	-4%	/	-7%	/	-6%[46.1 µM]	/	/
O=[N+]([O-])c1cc(C(F)(F)F)ccc1NCCCN1CCOCC1	/	/	0%	-3%	-5%	7%	-13%	-4%[46.1 µM]
COc1ccc(C(CC(=O)O)c2cc(OC)c(OC)c(OC)c2)cc1OC (configuration not stated)	/	/	/	-13%	/	-4%[46.1 µM]	?	13%
COc1ccc(CN2CCCC(C(=O)N(C)Cc3ccccc3)C2)cc1OC (configuration not stated)	3.3%	-1%	0%	0%	7%	6%	-14%	3%
Cc1cccc(N=C2NC(=O)/C(=C/c3cccn3C)S2)c1	/	/	-1%	27%	-2%	/	-4%	/
CCSc1nnc(NC(=O)C2CC(=O)N(Cc3ccc(C)cc3)C2)s1 (configuration not stated)	/	/	0%	-6%	/	-5%[46.1 µM]	-16%	12%[46.1 µM]
Cc1ccc(Cn2c(SCC(=O)Nc3cccc(C)n3)nc3c2c(=O)n(C)c(=O)n3C)cc1	-3.9%	-7%	3%	/	-7%	/	/	3%
COc1ccc(S(=O)(=O)N2CCCCC2)cc1NS(=O)(=O)c1ccccc1	/	/	-1%	7%	/	-20%	10%	-7%
Cc1cccc(NC(=O)CSCC(=O)N=c2sccn2C)c1	/	/	-4%	20%	/	3%	-8%	?
COc1ccc(NC(=O)c2cc3cc(C)ccc3[nH]2)cc1	0.9%	-8%	/	0%	/	3%[46.1 µM]	/	4%[46.1 µM]
COc1ccc(OC)c(CCNC(=O)CCn2c(=O)c3cccn3c3ccc(F)cc32)c1	-4.0%	-1%	/	-16%	/	-1%[46.1 µM]	/	/
CCCC1(CC)C(=O)NC(=O)N=C1N (configuration not stated)	/	/	/	-2%	/	6%[46.1 µM]	5%	-2%[46.1 µM]
C/C=C/c1ccc(OCC(O)CNCC(c2ccc(OC)cc2)N(C)C)c(OC)c1 (configuration not stated)	/	/	0%	2%	5%	-28%[46.1 µM]	13%	?
CN1CN(c2cccc([N+](=O)[O-])c2)CN=C1N[N+](=O)[O-]	/	/	0%	-10%	/	0%	6%	9%
CN1CCN(C(=O)COc2ccc(S(=O)(=O)NC3CCCCC3)cc2Cl)CC1	/	/	-2%	30%[activator]	3%	/	3%	/
COc1cc(/C=N/NC(N)=S)ccc1OCC(=O)N1CCOCC1	-30%	-19%	-4%	-8%	3%	13%	-7%	14%
COc1ccc(OCC(=O)Nc2c3c(nn2C(C)(C)C)CSC3)cc1	/	/	-2%	?	/	-26%	26%	-4%[46.1 µM]
CN(CCc1ccccn1)C(=O)CCC1CCCN(C(=O)c2c3c(nn2C)CCCC3)C1 (configuration not stated)	/	/	-1%	-19%	2%	0%	-2%	18%[46.1 µM]
COc1ccc(CN2CCN(CCSc3ccc(C)cc3)CC2)c(OC)c1OC	/	/	-6%	?	8%	/	3%	/
Cc1cc(-c2ccc(S(=O)(=O)Nc3ccccc3F)s2)on1	-8.3%	-17%	/	17%	/	?	/	/
O=c1c2ccccc2ncn1-c1ccc(Cl)cc1Cl	/	/	0%	-21%	-4%	/	-15%	/
CN(C)CC1CCCCC1C1(O)c2ccccc2CSc2sccc21 (configuration not stated)	-2.3%	-5%	-2%	?	12%	?	-8%	?
CCN(CC)S(=O)(=O)c1cccc(C(=O)NNC(=O)c2ccc3[nH]c(=O)c(=O)[nH]c3c2)c1	/	/	2%	-27%	-7%	/	5%	/
OCC1(CCCc2ccccc2)CCN(Cc2cc(F)ccc2F)CC1	/	/	-1%	1%	2%	/	7%	/
O=S(=O)(c1ccc2c(c1)OCCO2)N1CCN(c2nc3ccccc3s2)CC1	1.1%	-26%	9%	/	-8%	-24%	1%	22%
COc1ccc2sc(NCc3ccccc3)nc2c1	/	/	-10%	62%[activator]	-15%	/	-13%	/
CCn1c(=N)n(CC(O)c2ccccc2)c2ccccc21 (configuration not stated)	9.8%	0%	/	-11%	19%	2%	-22%	?
Cn1ccnc1SCC(=O)Nc1cccc([N+](=O)[O-])c1	/	/	-3%	22%	/	6%	-13%	23%[46.1 µM]
Cc1ccccc1CNCCCSc1ncccn1	/	/	0%	1%	3%	11%	10%	?
COc1ccc(N2C(=O)CC(NC3CCCCNC3=O)C2=O)cc1 (configuration not stated)	-0.9%	12%	-51%	-3%	12%	4%	?	?
Cc1cccc(C)c1NC(=O)CN(C)CC(=O)Nc1ccccc1Br	4.1%	-2%	5%	-7%	-5%	0%	-2%	3%[46.1 µM]
O=c1oc2ccc(Cl)cc2nc1/C=C(\O)c1cccs1	/	/	-1%	24%	-42%	?	-27%	?
CCOC(=O)C(C)Sc1nnc2c3ccccc3n(C)c2n1 (configuration not stated)	/	/	2%	8%	-31%	/	-1%	/
Other records:
SMILES	Cruzain Triton	Cruzain noTriton	SARS PLP yeast	StopGo reporter	NS1 function inh	Lassa entry inh	RE007 growth inh	MARV entry inh
COc1ccc(S(=O)(=O)NNC(=O)c2sccc2-n2cccc2)cc1	/	/	2%	0%	/	23%	14%	26%[46.1 µM]
Cc1ccc(C)c(OCCC(=O)Nc2ccc3c(c2)OCO3)c1	/	/	-5%	2%	/	-5%	24%	?
Cc1nnc(NC(=O)CSCc2cc(=O)c3cc(Cl)ccc3[nH]2)s1	1.6%	3%	/	-7%	/	14%[46.1 µM]	/	/
COc1cc(CNCc2cccnc2)ccc1OCc1ccccc1	/	/	-2%	4%	/	?	-10%	6%
O=C(Nc1c(C(=O)Nc2cccc3ccccc23)cnn1-c1ccccc1)c1ccco1	1.6%	5%	17%	6%	-5%	-7%	24%	-24%
Clc1ccc2nc(-c3cccs3)c(Nc3ccc4c(c3)OCCO4)n2c1	0.3%	8%	/	-6%	/	13%[46.1 µM]	/	25%[46.1 µM]
